High-throughput results deposited in PubChem BioAssay by Johns Hopkins Ion Channel Center.
KCNQ2 pot: KCNQ2 (rat) channel potentiation | O88943 | CHO-K1 KCNQ2, FluxOR thallium flux fluorescence; active compounds read high | B-score at 10 µM | 310,000 compounds, 0.54% hits;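 active means fluorescence ratio B-score at least 3 SD of library B-scores, with initial fluorescence B-score within 3 SD, cut at about 5.3 in these data; same plate scores as AID 2156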;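 further: B-score of peak minus minimum over baseline fluorescence ratio after K+ and Tl+ stimulus; positive B-score means potentiation of KCNQ2 with more thallium influx and brighter signal; only the inactives scoring about 0 or higher are listed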
Target sequence (O88943 whole entry, looked up): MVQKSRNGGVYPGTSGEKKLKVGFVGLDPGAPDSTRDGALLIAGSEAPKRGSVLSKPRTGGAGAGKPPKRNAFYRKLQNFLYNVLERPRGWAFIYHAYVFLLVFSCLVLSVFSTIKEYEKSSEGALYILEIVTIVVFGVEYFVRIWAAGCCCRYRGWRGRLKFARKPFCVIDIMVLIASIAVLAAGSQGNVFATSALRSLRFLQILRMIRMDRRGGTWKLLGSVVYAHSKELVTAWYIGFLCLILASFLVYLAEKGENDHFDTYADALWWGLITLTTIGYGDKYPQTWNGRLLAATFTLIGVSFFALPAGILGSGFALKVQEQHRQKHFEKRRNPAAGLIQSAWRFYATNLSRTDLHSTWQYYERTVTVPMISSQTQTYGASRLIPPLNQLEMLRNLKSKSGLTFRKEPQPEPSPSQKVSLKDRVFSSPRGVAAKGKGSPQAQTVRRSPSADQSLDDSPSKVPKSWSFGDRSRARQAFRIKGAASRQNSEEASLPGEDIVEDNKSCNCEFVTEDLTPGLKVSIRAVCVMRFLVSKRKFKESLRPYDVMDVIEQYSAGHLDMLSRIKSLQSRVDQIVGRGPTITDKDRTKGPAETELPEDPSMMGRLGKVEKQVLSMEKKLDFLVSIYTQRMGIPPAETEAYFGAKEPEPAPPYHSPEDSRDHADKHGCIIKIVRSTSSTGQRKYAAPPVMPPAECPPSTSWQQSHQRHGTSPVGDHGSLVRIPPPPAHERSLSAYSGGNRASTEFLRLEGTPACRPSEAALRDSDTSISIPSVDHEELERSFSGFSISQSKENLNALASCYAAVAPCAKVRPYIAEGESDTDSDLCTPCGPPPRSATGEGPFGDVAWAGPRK
KCNQ2 pot baseline: further read-out of KCNQ2 pot, marked with its call; B-score; compound at 10 µM; measured here: initial fluorescence intensity artifact check;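 brightness before thallium and not channel activity; 0 = typical well and far values either way flag optical interference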
* = called active by the depositor; . = no result given.

SMILES	KCNQ2 pot	KCNQ2 pot baseline
CCOC(=O)c1cn(CC)c2cc(N3CCN(C)CC3)c(F)cc2c1=O	0.65	0.69
Cn1nc(C(=O)OCC(=O)Nc2cccc(S(=O)(=O)N3CCCC3)c2)c2ccccc2c1=O	0.87	-0.05
O=C(O)c1cccc(OCCN2CCCC2=O)c1	2.4	-0.26
O=C1CC2c3ccccc3C1C1C(=O)N(CCO)C(=O)C21 (centres undefined)	1.6	-0.3
COc1ccc(C(=O)C2CCCN(C(=O)C3CCOCC3)C2)cc1OC (centres undefined)	0.56	1.9
CCc1nc(SCC(=O)c2ccc(Cl)s2)c2oc3ccccc3c2n1	10*	0.12*
O=C(c1cc(-c2ccccc2)n[nH]1)N1CCN(S(=O)(=O)c2ccccc2)CC1	0.34	-0.52
Cc1ccc(SCCN2CCN(CCc3ccccc3)CCC2=O)cc1	0.89	-0.2
CCc1c(C(=O)Nc2cc(C)cc(C)c2)[nH]c(C)c1C(C)=O	1.8	-0.57
NC(=O)COc1ccc(/C=N\NC(=O)CC(=O)NCCc2ccccc2)cc1	1.5	-0.07
O=C(CCN1CCOCC1)Nc1cc(C(=O)Nc2ccccc2F)ccc1N1CC2CC(C1)c1cccc(=O)n1C2 (centres undefined)	0.11	-0.49
COc1ccc(/C=N/NC(=O)CCSc2nc3ccccc3s2)cc1OC	1.6	0.75
CC1CN(CCc2ccccc2)c2nc3c(c(=O)n(C)c(=O)n3C)n2C1 (centres undefined)	2	-1.1
COc1cc(NC(=O)Cc2nn(C)c(=O)c3ccccc23)cc(OC)c1	1.2	-1.4
O=C(Nc1cccc(-n2cnnn2)c1)c1cc2ccccc2o1	0.56	-2
Cc1nonc1CN(C)C(=O)c1cc(COc2ccc(F)cc2Cl)on1	0.1	0.44
CN(C(=O)CCc1ccccc1F)C1CCCN(Cc2ccccc2F)C1 (centres undefined)	0.52	-0.58
Cc1cc2oc(C(=O)NCc3ccccc3)cc(=O)c2cc1C	0.26	0.83
CC1CCc2c(sc(NC(=O)c3cccs3)c2C(=O)O)C1 (centres undefined)	2	-0.25
Cc1csc(N2CCCC2=O)n1	0.96	-0.11
O=C(Cn1cc2c(n1)CCCCC2)N1CCCCC1	0.02	-2.5
CCOC(=S)N/C(=N\S(=O)(=O)c1ccc(C)cc1)c1ccccc1	2.5	0.02
O=C(CCc1nnc(C2(c3ccc(Cl)cc3)CCC2)o1)N1CCCC(O)C1 (centres undefined)	0.68	-0.84
Cc1ccccc1N1C(=O)CC(N2CCN(C(=O)c3ccco3)CC2)C1=O (centres undefined)	0.98	-1.5
S=C(NC1CCCCC1)N1CCn2cccc2C1c1cccnc1 (centres undefined)	0.26	-2.2
COc1ccc(NC(=O)c2ccc3[nH]c(C)c(C)c3c2)c(OC)c1	0.96	-0.85
COC(=O)c1ccc(C(=O)OC)c(NC(=S)N2CCCC(C)C2)c1 (centres undefined)	0.38	-1.1
COc1ccc(-c2nnc(SCC(=O)Nc3cccnc3Cl)n2C)cc1	0.38	0.11
O=C(Nc1cccc(O)c1)c1ccc(Br)c(S(=O)(=O)N2CCCCC2)c1	0.28	2.5
Cc1ccccc1Cn1cc(NC(=O)c2cc(C3CC3)on2)cn1	0.94	-0.25

4 of these compounds, reformatted.
molecule | KCNQ2 pot | KCNQ2 pot baseline
COc1ccc(-c2nnc(SCC(=O)Nc3cccnc3Cl)n2C)cc1 | 0.38 | 0.11
O=C(O)c1cccc(OCCN2CCCC2=O)c1 | 2.4 | -0.26
COc1ccc(C(=O)C2CCCN(C(=O)C3CCOCC3)C2)cc1OC (centres undefined) | 0.56 | 1.9
COc1ccc(NC(=O)c2ccc3[nH]c(C)c(C)c3c2)c(OC)c1 | 0.96 | -0.85

Continued:
SMILES	KCNQ2 pot	KCNQ2 pot baseline
Cc1cc(C)c2nc(C(F)(F)F)nc(N3CCN(C(=O)c4ccco4)CC3)c2c1	1.5	-1.4
Nc1ccccc1Nc1c(F)c(F)nc(F)c1Cl	0.01	0.07
N#Cc1cc([N+](=O)[O-])ccc1NC(=O)COC(=O)CC1CCCC1	0.01	-0.02
CC(=O)c1sc(NC(C)c2ccccc2)nc1C (centres undefined)	1.1	-1.2
COc1ccc(CNC(=O)CCCCCNC(=O)N2CCn3c2nc2ccccc23)cc1	3.2	-1.6
CCCNC(=O)NC(=O)CSc1ccc(C)cc1C	0.88	-0.23
Cn1cc(CC(=O)NCc2ccc(F)cc2)c2ccccc21	0.37	-0.01
CC1CCN(c2ccc(S(=O)(=O)NC3=NCCCCC3)cc2[N+](=O)[O-])CC1	1.4	0.71
CC(C)c1ccc(/C=C2\SC(=O)N(CC(=O)NC3CCS(=O)(=O)C3)C2=O)cc1 (centres undefined)	0.6	1.2
CN(C)C(=O)c1cccn(Cc2ccc(C(F)(F)F)cc2)c1=O	0.76	0.02
COC(=O)C1C/C(=N\NS(=O)(=O)c2ccc(C)cc2)c2ccsc2C1 (centres undefined)	1.7	-0.67
CCOCC(=O)Nc1cccc(SC)c1	1.3	-1.5
CN(C(=O)CCS(=O)(=O)c1ccc2c(c1)oc(=O)n2C)C1CCCCC1	0.62	-0.12
Cc1ccc(-n2c(N)c(C(N)=O)sc2=S)c(C)c1	0.69	0.06
O=C(NCCN1CCCCC1)Nc1ccc([N+](=O)[O-])cc1	1.6	-0.41

One compound at a time (already shown).
`CC(=O)c1sc(NC(C)c2ccccc2)nc1C` (centres undefined) is listed as KCNQ2 pot: 1.1; KCNQ2 pot baseline: -1.2
`CCOCC(=O)Nc1cccc(SC)c1` is listed as KCNQ2 pot: 1.3; KCNQ2 pot baseline: -1.5

(continued)
SMILES	KCNQ2 pot	KCNQ2 pot baseline
CN(C)C(=O)N1CCN(C(=O)N2CCOCC2)CC1	0.29	-0.19
CC(=O)N1CCCc2cc(S(=O)(=O)N3CCCC(C(=O)Nc4cccc(F)c4)C3)ccc21 (centres undefined)	0.34	0.04
COC(=O)C1CCN(C(=O)COc2cc3sc(C)nc3c3sccc23)CC1	0.31	-0.03
O=C(CCCN1C(=O)/C(=C/c2ccccc2Cl)SC1=S)NNC(=O)c1ccccc1	0.01	0.61
N#Cc1ccccc1NS(=O)(=O)c1cc2c3c(c1)CCC(=O)N3CCC2	0.29	-0.48
O=C(CCCn1ncn2c(cc3occc32)c1=O)N1CCc2ccccc2C1	0.24	0.73
O=S(=O)(c1cccc(-c2nnc(-c3cccnc3)o2)c1)N1CCCCC1	1.7	-0.03
COc1cccc2[nH]c(C(=O)NCCc3ccccc3)cc12	1.6	-2.3
COC(=O)C1CCN(c2cc(Cl)nc(N)n2)CC1	1.2	-0.19
CCCC(=O)C1=C(O)C(C(=O)OC)C(C)(C)CC1=NCCc1ccc(OC)c(OC)c1 (centres undefined)	1.1	0.58
COc1cccc(CN2CCNC(=O)C2CC(=O)N(C)C2CCOCC2)c1 (centres undefined)	0.37	1
CCc1ccc(N2CC(C(=O)N3CCN(c4ccccn4)CC3)CC2=O)cc1 (centres undefined)	0.46	-0.8
CCc1nnc(NC(=O)CSc2nnc(-c3ccoc3C)n2-c2cccc(C)c2)s1	0.6	-0.37
COc1cc(CN2CCCC(CCC(=O)NCc3ccc(C)o3)C2)cc2c1OCO2 (centres undefined)	2.4	0.87
CCCC(c1nnnn1C1CCCC1)N1CCN(C(=O)c2ccco2)CC1 (centres undefined)	1.2	-0.22

Grouped by structure, those above containing a CF3 group.
SMILES	KCNQ2 pot	KCNQ2 pot baseline
Cc1cc(C)c2nc(C(F)(F)F)nc(N3CCN(C(=O)c4ccco4)CC3)c2c1	1.5	-1.4
CN(C)C(=O)c1cccn(Cc2ccc(C(F)(F)F)cc2)c1=O	0.76	0.02

Next section:
SMILES	KCNQ2 pot	KCNQ2 pot baseline
COc1ccc(OC)c(C(c2nnnn2CC2CCCO2)N2CCN(C3CCCC3)CC2)c1 (centres undefined)	0.77	0.15
COc1ccc(S(=O)(=O)n2ccc(C)n2)cc1C	1.1	0.77
CCCCN(C(=O)CSc1nnc(-c2ccc(OC)cc2)n1C(C)C)c1c(N)n(Cc2ccccc2)c(=O)[nH]c1=O	0.55	0.04
Cc1ccc(S(=O)(=O)NC(=O)Nc2c(C)cccc2C)cc1	0.14	0.02
COc1cc(CNc2ccc(CNc3ncn[nH]3)cc2)ccc1OCc1ccccc1	0.77	2.6
Nc1nc(SCC(=O)Nc2ccccc2Sc2ccc(Cl)cc2)n[nH]1	6.2*	0.24*
COC(=O)C1=C2SC(C)C(=O)N2C(N)=C(C#N)C1c1cc(OC)c(OC)c(OC)c1 (centres undefined)	0.73	-0.2
COC(=O)COc1ccccc1/C=C1/NC(=O)NC1=O	2	-0.39
CC1(C)c2ccccc2N2CC(=O)N[C@@]21/C=C/C=C/c1ccccc1	0.53	0.83
O=C(Nc1ccc(F)cc1F)c1ccc2c(c1)OCCO2	0.25	-1.5
CC(O)[C@H]1CN=C(N)N1CC(C)(C)C (some centres undefined)	1.4	0.2
COC(=O)C(C)Sc1ccc2nnc(CCNS(=O)(=O)c3ccc(C)cc3)n2n1 (centres undefined)	2.2	-0.79
Cc1ccc(Cl)c(OCC(O)CN(CCO)CCO)c1 (centres undefined)	1.1	0.26
Cc1cccc(OCCNc2nc3c(c(=O)n(C)c(=O)n3C)n2C)c1	0.28	-0.29
COc1ccc(-n2nc3c(c2NC(=O)c2c(F)cccc2Cl)CS(=O)C3)cc1 (centres undefined)	0.11	-2.1
CCOC(=O)c1sc(Nc2ccc(Br)cc2)nc1C	0.7	2.7
Nc1cc(=O)[nH]c(SCC(=O)Nc2ccc(Oc3ccccc3)cc2)n1	1.1	-0.87
CCCCC1C2=C(CCCC2=O)OC2=C1C(=O)CCC2	0.22	-0.92
Cc1ccc(CS(=O)Cc2ccc(C(=O)N3CCOCC3)o2)cc1 (centres undefined)	0.41	0.36
Cc1c(CCOC(=O)CC23CC4CC(CC(C4)C2)C3)sc[n+]1Cc1ccccc1	-5.6	.
CCCCN(C(=O)c1ccc2c(c1)OCO2)c1c(N)n(CCCC)c(=O)[nH]c1=O	0.68	0.03
COc1ccc2c(c1)cc1c(=O)n(CC(=O)NCCCN3CCOCC3)nc(C)n12	0.53	0.41
COc1cccc(OCCCN2CCCCCC2)c1	1.1	0.88
CCCn1nnc(NC(=O)COc2cc(C)ccc2C(C)C)n1	0.71	-2
O=C(NC1=NCCS1)c1ccccc1F	0.66	-1.5
CCOC(=O)C1=C(N)Oc2c(oc(CO)cc2=O)C1c1ccc(F)c(F)c1 (centres undefined)	3	0.67
CC(C)(C)OC(=O)N1CSC[C@H]1C(=O)NC[C@H](CC(=O)O)c1ccc(Cl)cc1	0.9	-0.53
CN(Cc1nc(-c2ccc(Cl)cc2)no1)C(=O)CCN1C(=O)[C@H]2CC=CC[C@H]2C1=O	0.33	-0.65
O=C(c1ccc(C23CC4CC(CC(C4)C2)C3)o1)N1CCOCC1	0.93	-0.04
CC(NC(=O)COC(=O)c1cc(Cl)nc(Cl)c1)c1ccccc1 (centres undefined)	0.26	0.01
CCc1ccccc1NC(=O)CN(C)C(=O)CN1C(=O)NC2(CCCCCC2)C1=O	1.2	-0.72
Cc1cc(C)cc(N(C(=O)Cc2cccs2)C(C(=O)NC2CCCC2)c2ccc(C)o2)c1 (centres undefined)	0.19	-0.92
CCOc1ccc(CNCc2cccnc2)cc1	0.41	0.68
CCOC(=O)Cc1csc(SCC(=O)Nc2cccc(Cl)c2)n1	2.5	0.01
CCN(CC)C(=O)CSc1nnc(-c2c[nH]c3ccccc23)o1	0.56	0.39
Cn1nnnc1SCCNC(=O)C1CCC(=O)N(Cc2ccc(Cl)cc2)C1 (centres undefined)	0.5	-0.74
COc1ccc(CC(=O)Nc2ccccc2C(=O)NCCc2ccccc2)cc1	0.23	-0.59
Cc1ccc(N=Nc2c(C)[nH]n(-c3ccccc3)c2=O)c(C)c1	0.16	0.04
CC(C)[C@@H](N)C(=O)N/N=C/c1ccc2nccnc2c1	1.1	0.66
CCCCOc1ccc(Nc2cc(Cl)ccc2C(=O)O)cn1	3.9	0.05
CCCCCc1nc2c(c(=O)c3ccccc3n2C)c(=O)n1Cc1ccc(OC)cc1	0.12	-0.49
COc1cc(-c2nn3c(-c4ccccn4)nnc3s2)cc(OC)c1OC	0.14	-0.2
C=CCN(Cc1nc(-c2cc(OC)c3c(c2)OCO3)oc1C)C1CCS(=O)(=O)C1 (centres undefined)	0.04	-0.73
Cc1nnsc1C(=O)N1CCN(c2cc(C(F)(F)F)ccn2)CC1	1.3	-0.76
COc1ccc(OC)c(C(=O)N2CCC(n3nccc3NC(=O)CC(C)C)CC2)c1	0.47	-0.94

Arranged by number of heavy atoms (rising): some entries from above
SMILES	KCNQ2 pot	KCNQ2 pot baseline
CCOc1ccc(CNCc2cccnc2)cc1	0.41	0.68
COc1cc(-c2nn3c(-c4ccccn4)nnc3s2)cc(OC)c1OC	0.14	-0.2
COc1ccc(CC(=O)Nc2ccccc2C(=O)NCCc2ccccc2)cc1	0.23	-0.59
COc1ccc(OC)c(C(=O)N2CCC(n3nccc3NC(=O)CC(C)C)CC2)c1	0.47	-0.94

(further entries)
SMILES	KCNQ2 pot	KCNQ2 pot baseline
CC(=O)c1cnn(-c2ccccc2)c1C	2.2	-0.47
CCOc1cc(/C=C/C(=O)O)ccc1OCCOc1ccc(F)cc1	0.03	0.25
COc1cccc(N2CCN(S(=O)(=O)c3ccc(-c4coc(C)n4)cc3)CC2)c1	0.64	0.76
Cc1cc(C)nc(SCC(=O)Nc2ncc3c(n2)CC(C)(C)CC3=O)n1	0.68	-1.1
COc1cc(C(=O)Nc2ccc([N+](=O)[O-])cn2)cc(OC)c1OC	0.17	0.48
CCOc1ccc(C(=O)NCC2OCCc3ccccc32)cc1 (centres undefined)	0.14	-0.71
Cc1nn2c(=O)c(NC(=O)c3ccc(Cl)cc3)cnc2s1	1.9	0.8
CC(=O)C[C@H]1c2ccccc2S(=O)(=O)N1C1CCCCC1	0.74	-0.34
Cc1c(NC(=O)C(C)Sc2ccc3ccccc3n2)c(=O)n(-c2ccccc2)n1C (centres undefined)	0.3	0.65

The list is partial; rates above refer to the full screens.
